Bioassay records (PubChem)
MT1-MMP act inh: MT1-MMP (human) activation inhibition; P50281; HT1080 RFP-PRO-GFP cells, GFP/RFP ratio fluorescence, overnight; percent of plate control window, DMSO zero; GFP/RFP ratio change, % at 20 µM; actives 0.061% (n = 360,000);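 active means GFP/RFP ratio change of at least 30% with cell ATP level not reduced by more than half and red fluorescence within 50% of control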; further: strong numbers were not always called active
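Material – HT1080 RFP-PRO-GFP cells · Control set – DMSO wells and RFP-L50D-GFP cells · Incubation – overnight cell settling, then overnight compound exposure, 37 °C, 5% CO2 · Compound dosing – single-point 20 µM compound, 1% DMSO · Read-out – GFP/RFP fluorescence ratio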
Rce1 inh: yeast Ras-converting enzyme inhibition; yeast membranes, quenched prenylated peptide cleavage fluorescence; calls only; actives 0.27% (n = 290,000); AID 2563;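 active means fall in fluorescence gain of 50% or more versus controls, with final raw signal at or below 3038400; inconclusive means same 50% fall but final raw signal above 3038400; inactive means fall in fluorescence gain under 50%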;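 further: plate controls were neutral control wells for no effect and wells lacking membranes for full effect; tested at 10 µM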
Target sequence (Q03530 whole entry, looked up): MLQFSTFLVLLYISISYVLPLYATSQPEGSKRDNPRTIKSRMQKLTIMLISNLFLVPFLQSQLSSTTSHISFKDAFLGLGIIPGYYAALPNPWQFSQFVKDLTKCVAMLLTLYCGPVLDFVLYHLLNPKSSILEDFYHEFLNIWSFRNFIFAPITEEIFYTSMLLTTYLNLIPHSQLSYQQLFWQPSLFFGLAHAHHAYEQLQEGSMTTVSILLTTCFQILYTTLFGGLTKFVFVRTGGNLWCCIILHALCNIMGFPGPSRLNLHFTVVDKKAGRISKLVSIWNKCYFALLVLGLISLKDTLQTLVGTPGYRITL
PABP polyA inh: PABP-poly(A) binding inhibition; P11940; PABP-poly(A) RNA binding, fluorescence polarization; inhibition, % at 35 µM; actives 1% (n = 290,000); AID 2014;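 active means 50% or more with normal probe brightness, or confirmed in later tests; inconclusive means above 50% with abnormal brightness, or retests that disagree; inactive means below 50% or failed in later tests; about a fifth of its hits are not listed in these tables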;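 further: calls also rest on retests at 20 µM and on dose response follow-up; controls were probe without protein and protein plus probe with vehicle; some compounds called inactive have numbers as strong as hits; many hits fall short of the cut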
Target sequence (P11940 whole entry, looked up): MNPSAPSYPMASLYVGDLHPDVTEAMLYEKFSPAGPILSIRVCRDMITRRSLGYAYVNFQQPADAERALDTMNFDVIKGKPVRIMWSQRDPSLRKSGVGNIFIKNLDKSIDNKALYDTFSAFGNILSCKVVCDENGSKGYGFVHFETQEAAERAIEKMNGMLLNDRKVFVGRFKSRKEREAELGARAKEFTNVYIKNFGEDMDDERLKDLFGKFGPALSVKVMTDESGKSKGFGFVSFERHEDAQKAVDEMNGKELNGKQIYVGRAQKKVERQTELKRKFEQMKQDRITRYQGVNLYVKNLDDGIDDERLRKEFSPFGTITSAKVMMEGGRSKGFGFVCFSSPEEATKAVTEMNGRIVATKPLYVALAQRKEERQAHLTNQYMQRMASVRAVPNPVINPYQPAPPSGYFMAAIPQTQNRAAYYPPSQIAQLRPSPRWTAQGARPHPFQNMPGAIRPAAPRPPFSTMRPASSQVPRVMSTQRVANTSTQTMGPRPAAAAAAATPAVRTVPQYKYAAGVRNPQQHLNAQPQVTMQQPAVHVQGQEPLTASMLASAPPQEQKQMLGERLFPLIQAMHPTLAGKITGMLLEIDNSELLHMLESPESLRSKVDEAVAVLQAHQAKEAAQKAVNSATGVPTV
Yeast UUG start: yeast start codon fidelity modulation. activity score, % at 18.7 µM. S. cerevisiae UUG-firefly luciferase reporter, luminescence/redox ratio. actives 0.13% (n = 350,000). AID 602363;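 active means replicate mean at a twofold rise or more, about +100% in these data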;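 further: firefly luciferase made from a UUG start codon reports start codon fidelity; reporter light over untreated wells divided by growth signal over untreated wells; some hits fall short of that in this replicate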
HIV Env fusion: HIV envelope-mediated fusion inhibition. HeLa-JRFL Env/CEM21 cell fusion, luciferase. actives 1.1% (n = 360,000). inhibition, % at 12.3 µM. AID 651610;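 active means mean replicate inhibition score of at least 50 and every replicate individually at or above 50; inconclusive means only one of the two criteria met; inactive means mean below 50 and not all replicates reaching 50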;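 further: 0% = plate neutral controls and 100% = maraviroc near 300 nM; one replicate is shown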
eIF4H FP inh: inhibitors of RNA binding by human eIF4H. Q15056. actives 0.94% (n = 290,000). AID 2012. eIF4H fluorescence polarization binding assay. inhibition, % at 35 µM;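 active means 50% or more with normal probe brightness, or confirmed in later tests; inconclusive means above 50% with abnormal brightness, or retests that disagree; inactive means below 50% or failed in later tests; about a fifth of its hits are not listed in these tables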;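 further: calls also rest on retests at 20 µM and on dose response follow-up; 0% = protein and probe with vehicle and 100% = probe without protein; strong numbers were not always called active; many hits fall short of the cut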
CSC inhib: cancer stem cell inhibition. cancer stem cell-like cells viability, luminescence. inhibition, % at 7.5 µM. actives 1.1% (n = 300,000);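 active means mean at 75% or more and at least half the replicates too; inconclusive means mean and replicates disagree; tested in HMLE shEcad cells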;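 further: 0% = median of negative and 100% = median of positive control wells; the first replicate is given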
eIF4H FP inh retest: second read-out of eIF4H FP inh, no call of its own (marks repeat the call); inhibition, %; compound at 20 µM; confirmation average;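 mean of two retest wells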
PABP polyA inh retest: second read-out of PABP polyA inh, no call of its own (marks repeat the call); inhibition, %; compound at 20 µM; confirmation repeats;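 mean of two retest wells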
MT1-MMP act inh RFP: recorded beside MT1-MMP act inh, whose call it bears; RFP signal change, %; measured here: RFP expression control read;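 0 = vehicle wells; hits needed this value within 50% of zero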
An asterisk follows results filed as active; i = inactive; ? = inconclusive; / = no result given. Random draw from the library. Share with any hit: about 2.9%.

SMILES | MT1-MMP act inh | MT1-MMP act inh RFP | Rce1 inh | PABP polyA inh | Yeast UUG start | HIV Env fusion | eIF4H FP inh | CSC inhib | others
CCOc1ccc(OCc2cccc(C(=O)N/N=C/c3cccnc3)c2)cc1 | 0 | -4 | i | -9 | -21 | 69* | -5 | 0
O=C1CC(N2CCN(S(=O)(=O)c3cccc(C(F)(F)F)c3)CC2)C(=O)N1Cc1ccccc1 (centres undefined) | 6 | 6 | i | -8 | 0 | -26 | -5 | -12
COCCCN1C(=O)CS/C1=N\S(=O)(=O)c1ccccc1 | -12 | 5 | i | 0 | 4 | -12 | -9 | -3
CCOC(=O)CSc1nnc(CNC(=O)c2ccco2)n1C | 1 | -2 | i | 3 | -5 | -23 | -8 | -6
Oc1ccccc1OCC(O)c1ccccc1 (centres undefined) | 5 | 5 | i | 3 | -19 | -3 | 6 | 0
CN1CCN(c2ccc(NC(=O)c3ccc(-c4cccc([N+](=O)[O-])c4)o3)cc2)CC1 | -2 | -5 | i | 5 | / | -13 | 8 | -14
Cc1ccc(-n2cccc2/C=C2/NC(=O)N(CC(=O)Nc3cccc(C)c3)C2=O)cc1 | -2 | -1 | i | -2 | / | -1 | 4 | 1
CCC(=O)N1c2ccccc2C(N(C(C)=O)c2ccccc2)CC1C (centres undefined) | 13 | 10 | i | -5 | 9 | -105 | -2 | -17
O=C1CN(S(=O)(=O)c2ccccc2)c2ccccc2N1 | 1 | 0 | i | -11 | -12 | 9 | -11 | -13
CCOC(=O)c1cc(-c2ccccc2)sc1NC(=O)C(C)OC(=O)c1cccnc1OCC (centres undefined) | 0 | 1 | i | 7 | / | / | -11 | /
O=C(Nc1cccc(C(=O)N2CCCCC2)c1)c1ccc(Cl)cc1 | 2 | -5 | i | 4 | 7 | -11 | -15 | -2
CCNc1nc(SCC(=O)Nc2ccc(Cl)c(Cl)c2)nc(N(C)C)n1 | -2 | -9 | i | -23 | -1 | 18 | -6 | -15
O=C(C1CCN(c2nnc(N3CCCC3=O)s2)CC1)N1CCN(Cc2ccc3c(c2)OCO3)CC1 | 2 | -5 | / | -8 | -5 | / | 3 | /
CC(C)c1ccc2oc(-c3ccc(N)cc3)nc2c1 | 4 | -2 | i | -7 | -73 | i | 1 | 38
Cc1ccc(-n2ncc3c(SCC(N)=O)ncnc32)cc1C | 5 | -3 | i | 8 | -11 | -22 | -4 | /
CCOC(=O)c1cc(NC(=O)c2ccoc2C)cc(C(=O)OCC)c1 | 0 | 2 | i | -8 | -3 | -55 | -5 | -17
C=CCn1c(SCc2c(F)c(F)c(F)c(F)c2F)nc(O)cc1=O | 8 | 7 | i | 6 | / | 5 | -4 | /
O=C(CSc1nc2ccccc2[nH]1)N/N=C/C=C/c1ccccc1[N+](=O)[O-] | 3 | -1 | i | 1 | / | 11 | -4 | 1
CC(C)CC(c1nnnn1Cc1cccs1)N1CCN(c2nc3ccccc3s2)CC1 (centres undefined) | -13 | -20 | i | -10 | -10 | -85 | 11 | 20
CCOC(=O)Cc1csc(NC(=S)NC(=O)c2ccc(C)cc2)n1 | 3 | 6 | i | 11 | / | ? | 8 | -10
COc1ccc(Cc2nnc(Nc3ccc4c(c3)OCCO4)[nH]c2=O)cc1 | 2 | 5 | i | -14 | / | -24 | -3 | /
NC(=O)C1CCN(C(=O)c2cc(-c3ccc(Cl)s3)nc3ccccc23)CC1 | 2 | -2 | / | / | -7 | 5 | / | 2
O=C1OCC2=C1C(c1ccc3c(c1)OCO3)Sc1ccccc1N2 (centres undefined) | -8 | -11 | i | -8 | -13 | -54 | -1 | -3
CS(=O)(=O)N(Cc1ccccc1F)c1ccccc1 | -5 | 1 | i | -14 | -22 | -8 | 0 | -15
CCN(CC)c1ccc(C=Nc2ccc(C#N)cc2)c(O)c1 | -1 | 3 | i | 1 | 466* | / | 10 | 3
Additional results follow.
SMILES | MT1-MMP act inh | MT1-MMP act inh RFP | Rce1 inh | PABP polyA inh | Yeast UUG start | HIV Env fusion | eIF4H FP inh | CSC inhib | others
Cc1ccccc1C(=O)NNC(=O)C(=O)N1CCCCC1 | -2 | 5 | i | -8 | / | 12 | -8 | -9
Cc1sc2ncn(CC(=O)NC3CCCCC3)c(=O)c2c1C | -1 | -2 | / | / | -6 | -3 | / | -16
CCCN1CCN(CCCNC(=O)C2CCCN(c3nc4ccc(OCC)cc4s3)C2)CC1 (centres undefined) | 1 | -3 | i | 3 | 2 | 0 | -12 | 0
Cc1nn2c(C(F)(F)F)cc(-c3ccc(Cl)cc3)nc2c1C(=O)N1CCOCC1 | 1 | 1 | i | -1 | -2 | / | 7 | -6
CCOC(=O)c1ccc(Nc2cnc3ccccc3n2)cc1 | 1 | -2 | i | -10 | / | -78 | -6 | 3
CCOC(=O)CN1c2ccccc2NC(=O)CC1C (centres undefined) | 0 | 6 | i | 20 | 3 | -14 | 1 | 3
O=C(NC1CC1)c1cc(-c2ccccn2)nc2ccccc12 | 1 | 1 | i | -4 | -20 | / | -1 | -21
O=C1c2cccc(OCC(=O)N3CCCc4ccccc43)c2CCN1Cc1ccc(Br)cc1 | -7 | -19 | i | -5 | / | -24 | -13 | 52
O=C(c1ccc(CNS(=O)(=O)c2cccc(Cl)c2)cc1)N1CCCC1 | -2 | -2 | i | -7 | / | 22 | -4 | 1
O=c1[nH]c(NCCO)nnc1Cc1ccccc1 | 0 | 3 | i | / | -25 | 2 | / | -9
CCCCN(C=O)c1c(CC)nc2c(OCCOc3ccc(F)cc3)cccn12 | -1 | -3 | / | / | -20 | -1 | / | /
O=C(O)C(Cc1ccccc1)NS(=O)(=O)c1ccc(Cl)cc1 (centres undefined) | -18 | -6 | i | 12 | -5 | 11 | 6 | -7
N#CC(c1ccc(Cl)cc1)c1ccc2c(C(F)(F)F)cc(C(F)(F)F)nc2n1 (centres undefined) | -17 | -36 | i | -1 | / | / | -11 | -13
CCOC(=O)c1cc2c(C)nn(-c3ccccc3)c2s1 | -4 | 2 | i | 3 | -12 | -80 | 6 | 15
Cc1nc(N2CCN(c3ccccn3)CC2)c2c(C)c(C(=O)Nc3ccccc3F)sc2n1 | -4 | -14 | i | 15 | -8 | 8 | 10 | 50
Cc1nc(NC(=S)Nc2ccccc2)sc1C | -2 | -7 | i | -7 | / | -46 | -4 | 32
O=C(CCCn1cnc([N+](=O)[O-])n1)Nc1ccc(Cl)cc1Cl | -6 | -3 | i | -3 | / | 6 | -6 | -4
Cc1cc2c(cc1S(=O)(=O)Nc1ccc(OC(F)(F)F)cc1)OCC(=O)N2 | 1 | -2 | i | 2 | -3 | 0 | 5 | /
CC(=O)C1=C(C)NC(SCC(=O)c2ccc(C)cc2)=C(C#N)C1c1ccco1 (centres undefined) | / | / | i | 22 | / | / | 41 | 43
CCCOc1ccc(S(=O)(=O)N2CCCC2)cc1[N+](=O)[O-] | -1 | -7 | i | 2 | -4 | -14 | -2 | 6
COc1c(Cl)cc(C(=O)Nc2ccccc2C(=O)O)cc1Cl | 7 | 3 | i | 1 | 7 | -70 | -4 | 41
O=C(O)c1ccc(NC(=O)c2cccc(S(=O)(=O)Nc3ccc(C(=O)O)cc3)c2)cc1 | 0 | 0 | i | 56 | -8 | -3 | 2 | -8 | eIF4H FP inh retest=-8;PABP polyA inh retest=18
COc1ccc(NC(=O)COC(=O)CCC(=O)c2cccs2)cc1OC | -1 | 2 | / | / | 10 | -8 | / | /
CCC(=O)Nc1ccc(NC(=S)NC(=O)Cc2ccccc2)cc1 | 6 | 8 | i | 0 | / | / | 2 | -8
O=C(CSCc1ccccc1)Nc1cc([N+](=O)[O-])ccc1F | -2 | 0 | i | 5 | / | 7 | -5 | -14
Going on with the list.
SMILES | MT1-MMP act inh | MT1-MMP act inh RFP | Rce1 inh | PABP polyA inh | Yeast UUG start | HIV Env fusion | eIF4H FP inh | CSC inhib | others
CN(Cc1cc(Cl)cc(Cl)c1O)Cc1c(O)ccc2ccccc12 | 4 | 2 | / | / | -8 | 7 | / | /
CCC(C)NC(=O)Cn1nc(Cc2ccncc2)c2ccccc2c1=O (centres undefined) | -3 | 1 | i | -5 | -9 | -10 | -2 | -13
COc1cc2ccc(C(C)=O)cc2cc1OC | -4 | -3 | / | / | -13 | -20 | / | /
Cc1ccc(C)c(C(=O)COC(=O)c2ccccc2N2C(=O)C3C4CCC(C4)C3C2=O)c1 (centres undefined) | 1 | -4 | i | 8 | -11 | -2 | -3 | -6
O=C1CCCc2ccccc2N1Cc1ccc(Cl)cc1 | -1 | -3 | i | 6 | -1 | / | 10 | -2
Nc1cc(=O)[nH]c(SCC(=O)NC2CCCCCCC2)n1 | -2 | -2 | / | / | -11 | -21 | / | -13
Cc1ccc(S(=O)(=O)N2CCN=C2SCc2cccnc2)cc1 | 1 | 5 | i | -12 | / | -1 | -2 | -3
CCN(C(=O)CSc1nc2nc(C)cc(C)n2n1)c1ccccc1 | 1 | -2 | i | 0 | -1 | / | 0 | /
CC(C)(C)OC(=O)NCC(=O)NNC(=O)C(C(=O)OCc1ccccc1)c1ccccc1 (centres undefined) | 2 | -2 | / | / | -3 | 6 | / | 6
COc1ccc(O)c(C=Nc2cc(NC(C)=O)c(Cl)cc2Cl)c1 | 6 | 3 | i | 0 | / | 0 | 17 | 9
COc1cc(C(=O)NCC(=O)NCCSc2ccc(Br)cc2)cc(OC)c1OC | -1 | -6 | i | / | / | 11 | / | /
CCN(CC(=O)NCc1ccc(F)cc1)C(=O)/C=C/c1cccs1 | -1 | -1 | i | -10 | -12 | 8 | 0 | 19
C/C=C\C=C/C(=O)Nc1cccc(C2=NOC3(C2)C[C@@H](C(N)=O)N(C(=O)c2ccccc2)C3)c1 (some centres undefined) | / | / | i | -7 | / | / | 6 | 17
COc1cccc(C2=NOC(C(=O)N3CCc4ccccc4C3)C2)c1 (centres undefined) | 4 | 3 | i | -3 | -19 | -45 | 3 | /
CC(=O)NC12CC3CC(C1)CC(C(=O)Oc1ccc(N(C)S(=O)(=O)c4cc(C)ccc4C)cc1)(C3)C2 | -2 | -5 | i | / | 7 | 12 | / | 5
COc1ccccc1C1C(C#N)=C(N)Oc2c1oc(CO)cc2=O (centres undefined) | 1 | 2 | i | 9 | -11 | -27 | 12 | -15
CN1c2ccccc2-c2ccccc2S1(=O)=O | 3 | -1 | / | / | 3 | 2 | / | /
COCCn1c(C)cc(C(=O)COC(=O)Cc2n[nH]c(=O)c3ccccc23)c1C | 8 | -4 | / | / | -3 | -27 | / | /
COc1ccc(NC(=S)c2ccncc2)cc1 | 3 | -7 | i | -5 | / | -285 | -6 | -3
CC(C)C[C@@H](COc1ccccc1)N1CCN(C)CCC1=O | 2 | 3 | i | -1 | 3 | 0 | -7 | -6
Cn1c(=O)n(C)c2cc(CNC(=O)[C@H]3O[C@@H](n4cnc5c(N)ncnc54)[C@H](O)[C@@H]3O)ccc21 | -1 | 0 | / | / | -4 | 11 | / | /
Cc1csc(SCCn2c(N3CCOCC3)nc3c2c(=O)[nH]c(=O)n3C)n1 | -2 | 4 | i | -6 | -12 | 11 | 0 | -25
CCOC(=O)[C@@H]1[C@H]2COc3cc(OC)ccc3[C@@H]2N2C(=O)N(c3cccc(C)c3)C(=O)[C@]12C | 0 | 0 | / | / | 0 | -19 | / | -7
CCOC(=O)N/N=C/c1cc(C)n(-c2ccccc2)c1C | -5 | -1 | i | -8 | / | 1 | 5 | 7
